Source: PubChem BioAssay (National Center for Advancing Translational Sciences (NCATS))
Rango-impB inh: Rango-importin beta binding inhibition; Q14974; Rango CFP/YFP FRET sensor + importin beta, 45 min; Potency, µM (top dose mostly 92.2 µM), for the others: at the top dose inhibition of complex formation; 340,000 compounds, 0.031% hits; AID 540263; active = rising FRET ratio curve, often small or poorly fitted; inconclusive = mostly compound fluorescence or quenching in the first reads; inactive = flat curves in all reads;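 further: potency means the concentration at half of the fitted maximal effect; 0% = DMSO wells and 100% = buffer wells lacking importin beta; nearly all actives have a fitted effect of over 15% in size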
Target sequence (Q14974 whole entry, looked up): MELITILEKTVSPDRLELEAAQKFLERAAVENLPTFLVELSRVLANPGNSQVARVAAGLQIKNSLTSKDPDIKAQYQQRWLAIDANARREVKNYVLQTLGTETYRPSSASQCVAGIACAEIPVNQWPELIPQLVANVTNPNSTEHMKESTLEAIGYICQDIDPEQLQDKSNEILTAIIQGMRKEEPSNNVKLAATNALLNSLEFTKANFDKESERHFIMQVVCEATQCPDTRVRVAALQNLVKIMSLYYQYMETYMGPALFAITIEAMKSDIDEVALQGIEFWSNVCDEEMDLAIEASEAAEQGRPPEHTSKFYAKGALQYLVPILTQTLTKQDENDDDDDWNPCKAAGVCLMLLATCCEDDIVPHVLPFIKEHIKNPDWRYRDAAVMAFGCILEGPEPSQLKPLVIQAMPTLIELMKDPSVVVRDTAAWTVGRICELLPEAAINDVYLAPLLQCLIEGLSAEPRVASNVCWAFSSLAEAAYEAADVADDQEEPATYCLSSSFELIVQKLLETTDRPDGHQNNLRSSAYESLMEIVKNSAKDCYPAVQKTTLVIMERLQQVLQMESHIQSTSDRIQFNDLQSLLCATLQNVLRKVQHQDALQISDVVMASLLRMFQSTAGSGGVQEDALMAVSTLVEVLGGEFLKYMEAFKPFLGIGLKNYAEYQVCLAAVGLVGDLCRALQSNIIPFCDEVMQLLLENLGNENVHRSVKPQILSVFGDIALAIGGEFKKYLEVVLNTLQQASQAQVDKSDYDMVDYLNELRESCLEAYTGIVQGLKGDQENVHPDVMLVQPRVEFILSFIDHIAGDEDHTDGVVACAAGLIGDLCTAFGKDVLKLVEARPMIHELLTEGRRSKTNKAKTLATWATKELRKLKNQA
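FRET biosensor Rango (snurportin 1 IBB between N-terminal EYFP and C-terminal Cerulean), 50 nM in PBS/1 mM DTT/0.02% Tween-20/0.1% BSA, preincubated 5 min RT with compound; 0.125 microM importin beta added, 45 min RT, CFP/YFP FRET ratio read.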
GLA inh pH 4.5: inhibitors of human alpha-galactosidase A at pH 4.5; P06280; 230,000 tested, under 10 active; AID 1467; activity change, negative = inhibition, % at 105 µM; purified enzyme, 4-MU-alpha-Gal fluorescence, pH 4.5; inconclusive = small, poorly fitted or top-dose-only inhibition, or a rising curve; inactive = flat fitted curve, though single readings scatter; no compound was filed as active;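 further: 0% = full activity with enzyme and -100% = basal without enzyme; dose as in the result columns while the protocol names 77 µM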
miR-21 FLuc: raises the signal of a miR-21 reporter. HeLa miR-21 FLuc reporter, luciferase, 48 h. Potency, µM (highest dose often 38.3 µM), inactives show at the highest dose reporter change, positive = more light. 340,000 tested, under 10 active. AID 2288; active = well fitted rising curve with a large enough effect; inconclusive = small, poorly fitted or top-dose-only effect; inactive = no such curve, though single readings can be large or run the other way;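 further: % of control where 0% means no effect; miR-21 action dims this reporter so a rising signal means less miR-21 action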
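Luminescence from a firefly luciferase reporter carrying a miR-21 binding site downstream, stably expressed under a CMV promoter in HeLa cells that make miR-21 endogenously, reports miRNA modulation after 48 h compound exposure up to approximately 40uM final.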
Rango release inh: prevents RanGTP from dissociating the Rango-importin beta complex. O95149+P62826. Biochemical FRET Rango-importin beta, RanGTP-induced dissociation. Potency, µM (titrated, usually from 46.1 µM), without a hit: at the top dose activity change, negative = inhibition. 340,000 compounds, 0.071% hits. AID 540253; active means falling FRET ratio curve, often poorly fitted, with flat reads before Ran was added; inconclusive means other falling curves, or compound fluorescence or quenching; inactive means flat or rising ratio curve;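 further: potency means the concentration at half of the fitted maximal effect; % of control where 0% means no effect; nearly all actives have a fitted effect of over 45% in size; -100% = wells without RanGTP and RCC1; the record marks most hits as doubtful in a second field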
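Quantitative HTS using a FRET biosensor: 0.1 uM Rango, 0.25 uM importin beta, 0.6 uM Ran, 2 mM GTP, 0.2 uM RCC1 final, PBS with DTT, Tween-20 and BSA. Post-read taken 45 min after Ran addition.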
An asterisk follows results filed as active; ? = inconclusive; · = not tested or not shown; & = joins results of further samples.

The opening 3 entries as a preview:
SMILES	Rango-impB inh	GLA inh pH 4.5	miR-21 FLuc	Rango release inh
O=C(COC(=O)c1cccc(N2C(=O)c3ccccc3C2=O)c1)Nc1ccccc1	-2.2%	-3	-1%	8%
CCOc1ccc(Br)cc1/C(C)=N\NC1=NCCN1	-3.2%	3	?	5%
COc1ccc(-c2[nH]ncc2CN(C)Cc2ccccn2)c(OC)c1	-0.7%	5	-1%	0%

The whole of this part, from the first entry:
SMILES	Rango-impB inh	GLA inh pH 4.5	miR-21 FLuc	Rango release inh
O=C(COC(=O)c1cccc(N2C(=O)c3ccccc3C2=O)c1)Nc1ccccc1	-2.2%	-3	-1%	8%
CCOc1ccc(Br)cc1/C(C)=N\NC1=NCCN1	-3.2%	3	?	5%
COc1ccc(-c2[nH]ncc2CN(C)Cc2ccccn2)c(OC)c1	-0.7%	5	-1%	0%
CC(NC(=O)COc1ccccc1)C(c1cccs1)N1CCCC1 (centres undefined)	-6.0%	5	0%	1%
Cc1ccccc1NC1=NC2(CCCC2)N=C(N)N1	-0.6%	0	0%	1%
C=CCOCC(O)Cn1c(N2CCCC2)nc2c1c(=O)n(C)c(=O)n2C (centres undefined)	-5.4%	·	-6%	1%
CCC(=O)N(CCC1(C(C)C)CCOC(C)(C)C1)C(C)c1cccs1 (centres undefined)	-3.0%	-9	1%	-12%
CCN(CC)c1ccc2nc3ccc(N)cc3[n+](-c3ccccc3)c2c1	?	·	·	-35%
CCOc1ccc(NC(=O)NCCN2C(C)CCCC2C)cc1 (centres undefined)	-0.5%	-14	-4%	-4%
O=Cc1cc2ccccc2nc1SCc1ccc(Cl)cc1	0.0%	3	10%	2%
CCOC(=O)c1ccc(N2C(=O)CC(N3CCC(C(=O)OCC)CC3)C2=O)cc1 (centres undefined)	-4.1%	3	-2%	-6%
COC(=O)c1nc(NC(=O)c2ccc(C(C)(C)C)cc2)n[nH]1	0.7%	1	-6%	6%
CCCn1nnnc1SCC(=O)NC1CCCC1	0.2%	·	2%	15%
O=C(Nc1nccs1)c1cn(-c2ccccc2)nc1-c1ccccc1	-2.0%	-14	21%	6%
CC1CC(C)CN(C(=O)COC(=O)c2cccc(S(=O)(=O)N(C)c3ccccc3)c2)C1 (centres undefined)	-1.3%	·	·	-11%
COc1cc(-c2nc(-c3cccc(C(F)(F)F)c3)no2)cc(OC)c1OC	-2.5%	-23	-1%	-1%
N#Cc1ccccc1NC(=O)c1ccccc1OCC(=O)NCc1ccco1	0.5%	0	-4%	0%
O=C(OC1CCOC1=O)c1cccc(S(=O)(=O)N2CCc3ccccc3C2)c1 (centres undefined)	-3.4%	-22	0%	4%
Nc1nonc1-n1nnc(C(=O)N/N=C/c2ccccc2)c1CN1CCc2ccccc21	-2.0%	·	-7%	20%
CC12CCC(C(S(=O)(=O)Nc3ccccc3)C1=O)C2(C)C (centres undefined)	-0.7%	·	·	0%
COc1ccc(CN(C)C(=O)Cn2ccc(NC(=O)OCc3ccccc3)nc2=O)cc1OC	-2.6%	·	·	-9%
CCOc1ccc(CCNC(=O)c2cccc(NC3=NC4CS(=O)(=O)CC4S3)c2)cc1 (centres undefined)	-0.6%	·	0%	-6%
COc1ccc(CSc2nc3nc(C)cc(C)n3n2)cc1F	0.4%	·	-29%	0%
Cc1noc(C)c1COc1ccc(C(=O)OC(C)C(=O)Nc2ccc(N3CCOCC3)cc2)cc1 (centres undefined)	1.7%	1	-5%	-10%
Cc1ccc(-n2ncc(C#N)c2/N=C/N2CCCCCC2)cc1	0.1%	-3	1%	15%

5 neighbouring entries out of the list so far:
SMILES	Rango-impB inh	GLA inh pH 4.5	miR-21 FLuc	Rango release inh
COc1ccc(-c2[nH]ncc2CN(C)Cc2ccccn2)c(OC)c1	-0.7%	5	-1%	0%
CC(NC(=O)COc1ccccc1)C(c1cccs1)N1CCCC1 (centres undefined)	-6.0%	5	0%	1%
Cc1ccccc1NC1=NC2(CCCC2)N=C(N)N1	-0.6%	0	0%	1%
C=CCOCC(O)Cn1c(N2CCCC2)nc2c1c(=O)n(C)c(=O)n2C (centres undefined)	-5.4%	·	-6%	1%
CCC(=O)N(CCC1(C(C)C)CCOC(C)(C)C1)C(C)c1cccs1 (centres undefined)	-3.0%	-9	1%	-12%

(listing goes on)
SMILES	Rango-impB inh	GLA inh pH 4.5	miR-21 FLuc	Rango release inh
COc1cc(O)c(C(CCN2CCCC(C)C2)c2ccc(N(C)C)cc2)c(OC)c1 (centres undefined)	?	0	2%	?
Cn1c(N)c(C(=O)COC(=O)CSc2ccccc2)c(=O)n(C)c1=O	5.0%	10	-17%	-7%
C/C=C(/C)C(=O)O[C@@H]1Cc2c(ccc3ccc(=O)oc23)OC1(C)C	-2.2%	·	·	18%
COc1ccc(-c2cc(C)no2)cc1S(=O)(=O)N1CCOc2ccc(Cl)cc21	-0.1%	·	-4%&0%	12%
CC(C)(C)n1ncc2c(=O)n(CC(=O)Nc3ccc4c(c3)OCO4)cnc21	-1.9%	-3	-7%	-2%
COc1cc(S(=O)(=O)NCc2ccc3c(c2)OCO3)ccc1Cl	1.9%	-2	-13%	7%
COC1C=CC(CNC(=O)c2cc3c(=O)n4cccc(C)c4nc3n2C)(OC)O1 (centres undefined)	3.6%	?	-5%	-5%
Cc1cccc(C)c1NC(=O)NC1(C(=O)N2CCN3CCCC3C2)CCCCC1 (centres undefined)	-4.5%	·	-3%	25%
CCc1ccc(C(=O)OCC(=O)N(CC)c2c(N)n(Cc3ccccc3)c(=O)[nH]c2=O)cc1	?	·	·	-8%
CCNC(=O)c1c(C)nc2ccccn12	0.8%	2	0%	13%
CC(=O)Oc1c(S(=O)(=O)c2ccccc2)c(C)nn1C(C)(C)C	-0.6%	0	-4%	2%
CC(C)CC(=O)Nc1ccc(C(=O)Cn2nc(C(=O)O)c3ccccc3c2=O)cc1	5.1%	0	-2%	15%
Cc1cc(C(=O)N/N=C\c2cc(C(C)(C)C)ccc2O)n[nH]1	4.3%	·	2%	-15%
Cn1cnnc1SCC(=O)NCCc1ccccc1	0.0%	-7	-3%	27%
O=C(Nc1c(C(=O)O)[nH]c2ccccc12)c1cccc(C(F)(F)F)c1	2.8%	-5	-1%	3%
CCN(CC)CCCNc1cc2n(c(=O)n1)CCc1cc(OC)c(OC)cc1-2	?	9	-13%	-2%
CCCSc1nc(N)nc(-c2cccs2)c1C#N	0.2%	16	-68%	2%
CCOC(=O)C1CCN(Cc2cnc(Oc3ccc(Cl)cc3C)s2)CC1	-3.4%	-30	-9%	-5%
Cc1ccc2oc(NC(=O)N3CCOCC3)cc(=O)c2c1	1.3%	5	-9%	-10%
COCCN(CCOC)c1nc(N)c2c(N)nc3c(c2c1C#N)CC(=O)N3Cc1ccc(Cl)cc1	-0.5%	4	-2%	-11%
N#Cc1cc(C(=O)c2cc(Br)ccc2O)cn(Cc2ccccc2)c1=O	?	3	25%	-8%
c1ccc2c(c1)ccc1nnc(SCc3ccc4c(c3)OCO4)n12	-6.6%	-2	-60%	-12%
CC(=O)c1cnc2nc(SCc3ccc(C)cc3)nn2c1C	0.2%	·	-11%	-9%
CNC(=O)C(NC(=O)c1ccccc1)=C(C)C	-2.7%	1	0%	1%
CCCN1C(=O)/C(=C/c2ccc(OCC(=O)OCC)cc2)NC1=S	?	-2	7%	?
Next part.
SMILES	Rango-impB inh	GLA inh pH 4.5	miR-21 FLuc	Rango release inh
O=[N+]([O-])c1ccc(Oc2ncccn2)cc1	8.1%	·	·	-5%
COc1ccc(/C=C2/C(=O)N(Cc3ccccc3)N=C2C)cc1	-0.1%	-6	28%	-3%
CCOC(=O)c1c(NC(=O)c2ccc(Br)o2)sc2c1CCCC2	-3.9%	-2	-3%	-14%
CSc1nc(C(=O)N2CCCC(C(=O)c3ccc(Cl)cc3)C2)cs1 (centres undefined)	4.9%	-13	3%	-1%
CN(CC(=O)NCCc1ccc(S(N)(=O)=O)cc1)CC(=O)Nc1ccc(F)c(F)c1F	-2.4%	·	·	-12%
COc1ccc(Cl)c2sc(N(CCN(C)C)C(=O)c3ccc4c(c3)OCCO4)nc12	-3.1%	·	·	0%
COc1ccc(NS(=O)(=O)c2ccc(C)c(C(=O)N(C)CC(=O)Nc3cccc(OC)c3)c2)cc1	7.3%	·	·	20%
O=C(CN1C(=O)C2CC=CCC2C1=O)Nc1nnc(SCc2ccc(F)cc2)s1 (centres undefined)	-2.9%	4	0%	-12%
Cc1cc(C)nc(N/N=C/c2ccc(Cl)cc2)n1	-3.9%	-1	-15%	14%
Cc1cccc(NC(=S)NN2CCOCC2)c1C	1.1%	3	0%	2%
O=C(CC12CC3CC(C1)CC(CC(=O)NC1=NCCS1)(C3)C2)NC1=NCCS1	-0.5%	-4	-9%	-13%
C/C(=C\c1ccco1)CN1CCN(Cc2ccc(C)o2)C(CCO)C1 (centres undefined)	-0.2%	7	0%	-13%
O=C(CCS(=O)(=O)Cc1ccccc1)Nc1ccc2c(c1)OCCO2	-1.3%	2	0%	-11%
O=C(NC(Cc1c[nH]c2ccccc12)C(=O)N/N=C/c1cccc2ccccc12)c1cccs1 (centres undefined)	4.5%	-6	-5%	-17%
O=c1[nH]c(C2CCN(S(=O)(=O)c3ccc(S(=O)(=O)NC4CC4)cc3)CC2)nc2c1nnn2Cc1ccc(F)cc1	-0.5%	·	-7%	7%
COc1ccc2c(c1)OC(O)(C(F)F)CC2=O (centres undefined)	-0.8%	-4	-6%	15%
COc1ccc(N2CC(C(=O)N(CC(C)C)c3c(N)n(Cc4ccccc4)c(=O)[nH]c3=O)CC2=O)c(OC)c1 (centres undefined)	-2.4%	·	·	8%
Cc1ccc(-n2nnc3c(=O)n(CC(=O)NCc4ccco4)cnc32)cc1	-1.7%	3	11%	-12%
C=CC(C)(C)c1[nH]cnc1/C=C1\NC(=O)C(C(C)C)NC1=O (centres undefined)	-1.2%	2	27%	3%
Cc1ccc(C2C3CN(C(C)C)CC=C3C(C#N)=C(N)C2(C#N)C#N)cc1 (centres undefined)	?	9	-8%	?
Cc1ccc(S(=O)(=O)N2CCN(Cc3nc4ccccc4[nH]3)CC2)cc1C	-1.1%	-12	-2%	7%
CSc1sc(C)cc1C1C(C#N)=C(N)N(c2cccnc2)C2=C1C(=O)CCC2 (centres undefined)	7.2%	7	-14%	?
Cc1cc2occ(CC(=O)N(CCC(C)C)c3c(N)n(Cc4ccccc4)c(=O)[nH]c3=O)c2cc1C	0.4%	·	·	2%
COc1cccc(-c2nc3ccc([N+](=O)[O-])cc3o2)c1	-3.8%	-2	-22%	-10%
CN(C(=S)Nc1ccc(SC(F)F)cc1)C(c1ccccc1)c1ccccc1	-2.2%	·	21%	1%
Next section
SMILES	Rango-impB inh	GLA inh pH 4.5	miR-21 FLuc	Rango release inh
Cc1ccc(S(=O)(=O)NCCNC(=O)CN2CCCC2)cc1	-1.4%	-4	0%	4%
COCC(C)NC(=O)c1ccc(Cl)c(Cl)c1 (centres undefined)	0.8%	-1	-3%	-4%
COC(=O)Nc1ccc2c(c1)N(C(=O)CCN1CCN3CCCC3C1)c1ccccc1S2 (centres undefined)	-0.5%	-2	-7%	-14%
Clc1nc(-c2cccnc2)nc2scc(-c3ccccc3)c12	1.1%	2	-69%	-6%
N#Cc1cc(Nc2c(N)nc[nH]c2=O)c([N+](=O)[O-])cc1C#N	6.7%	·	0%	-7%
O=S(=O)(NCc1cccnc1)c1ccc(Cl)s1	5.4%	9	-4%	10%
CC(C)Cn1c(N)c(C(=O)COC(=O)c2cc(C(F)(F)F)nc3c(C(F)(F)F)cccc23)c(=O)n(C)c1=O	·	-3&4	-4%	·
Cc1cc(C)cc(NC(=O)c2cccn2-c2ncc(C(F)(F)F)cc2Cl)c1	-0.4%	-9	12%	17%
CCCN1C2CCCC1CC(NC(=S)Nc1cc(C)ccc1C)C2 (centres undefined)	4.8%	2	-2%	1%
CC(C)(C)C(=O)OCc1nc(-c2ccc3c(c2)OCCO3)cs1	-1.2%	·	-56%	-15%
COC(=O)c1onc(-c2c(C)cc(C)cc2C)c1C(=O)OC	0.9%	5	0%	7%

Taken from above:
COC(=O)Nc1ccc2c(c1)N(C(=O)CCN1CCN3CCCC3C1)c1ccccc1S2 (centres undefined) – Rango-impB inh: -0.5%
COCC(C)NC(=O)c1ccc(Cl)c(Cl)c1 (centres undefined) – GLA inh pH 4.5: -1

Not all compounds are listed. The share of hits here may be higher or lower than overall.
